FGF22 binding – shifts melting point of recombinant human FGF22; Q9HCT0; recombinant FGF22 thermal shift, SYPRO orange fluorescence; percent of sucrose octasulfate shift, DMSO zero; calls only at 9.99 µM; 340,000 tested, 1.5% active; AID 651658;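 active = melting point raised past a set limit in the mean and every replicate; three in four hits are not shown here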
Target sequence (Q9HCT0 whole entry, looked up): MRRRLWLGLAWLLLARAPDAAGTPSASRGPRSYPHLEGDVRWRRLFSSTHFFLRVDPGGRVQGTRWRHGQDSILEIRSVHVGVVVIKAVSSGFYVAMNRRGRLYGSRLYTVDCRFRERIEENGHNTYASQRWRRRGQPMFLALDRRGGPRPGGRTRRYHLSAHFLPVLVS
Calls only; i = inactive.

SMILES | FGF22 binding
COc1ccc(C#Cc2cnc3c(c2)C(=O)N([C@@H](C)CO)C[C@H](C)[C@H](CN(C)CC2CCCC2)O3)cc1 | i
N#C[C@H]1[C@@H](c2ccccc2)[C@H](CO)N1C(=O)c1ccc2c(c1)OCO2 | i
Cc1ccc(S(=O)(=O)N(C)C[C@H]2Oc3ccc(NC(=O)C4CCCCC4)cc3C(=O)N([C@H](C)CO)C[C@@H]2C)cc1 | i
CNC[C@@H]1Oc2ccc(NC(=O)Nc3ccc4c(c3)OCO4)cc2CC(=O)N([C@H](C)CO)C[C@H]1C | i
CC(=O)Oc1ccccc1C(=O)OCO/N=[N+](\[O-])N1CCC[C@H]1C(=O)O | i
CC(=O)N(C)C[C@@H]1Oc2cc(C#Cc3ccccn3)ccc2S(=O)(=O)N([C@H](C)CO)C[C@H]1C | i
O=C(C1CCOCC1)N1C[C@H]2[C@@H](c3ccccc31)[C@@H](CO)N2Cc1ccc(Cl)cc1 | i
C[C@H]1CN([C@@H](C)CO)C(=O)Cc2cc(NS(=O)(=O)c3cccs3)ccc2O[C@H]1CN(C)S(=O)(=O)c1ccc(F)cc1 | i
C[C@@H]1CN([C@H](C)CO)C(=O)c2cc(NC(=O)C3CC3)ccc2O[C@@H]1CN(C)Cc1ccc(Oc2ccccc2)cc1 | i
Cc1noc(C)c1S(=O)(=O)Nc1ccc2c(c1)C(=O)N([C@H](C)CO)C[C@@H](C)[C@@H](CN(C)S(=O)(=O)c1cccs1)O2 | i
O=C(C[C@@H]1CC[C@@H](NS(=O)(=O)c2cccc(F)c2)[C@@H](CO)O1)NCc1ccc2c(c1)OCO2 | i
CN1CCN(C(=O)C[C@H]2CC[C@@H]3[C@@H](COc4ccc(NC(=O)c5ccc(F)c(F)c5)cc4C(=O)N3C)O2)CC1 | i
COC(=O)C[C@@H]1CC[C@@H]2[C@H](COc3ccc(NS(=O)(=O)c4cccc(F)c4)cc3C(=O)N2C)O1 | i
COc1ccc(NC(=O)N[C@H]2CC[C@H](CCn3cc(C4(O)CCCC4)nn3)O[C@H]2CO)cc1 | i
CC(C)NC(=O)Nc1ccc2c(c1)C(=O)N([C@H](C)CO)C[C@@H](C)[C@@H](CN(C)S(=O)(=O)c1cn(C)cn1)OCCCC[C@H](C)O2 | i
CCC(=O)NC[C@H]1[C@H](c2ccc(-c3ccccc3)cc2)[C@H](CO)N1C(=O)C1CC1 | i
COc1ccccc1NC(=O)Nc1ccc2c(c1)C(=O)N(C)C[C@@H](OC)[C@H](C)CN(C)[C@H](C)CO2 | i
C[C@@H]1CN([C@H](C)CO)C(=O)Cc2cc(N(C)C)ccc2O[C@@H]1CN(C)C(=O)Nc1ccccc1 | i
Cc1ccc(S(=O)(=O)N(C)C[C@@H]2Oc3ccc(NS(=O)(=O)c4ccc(Cl)cc4)cc3C(=O)N([C@@H](C)CO)C[C@@H]2C)cc1 | i
Cc1cc(C(=O)Nc2cccc3c2O[C@H](CN(C)Cc2ccc4c(c2)OCO4)[C@@H](C)CN([C@H](C)CO)C3=O)n(C)n1 | i
O=C(Cc1ccncc1)NCC[C@H]1CC[C@@H](NC(=O)C2CCCC2)[C@H](CO)O1 | i
COCC(=O)Nc1ccc2c(c1)C(=O)N(C)[C@@H]1CC[C@@H](CC(=O)NCc3cccc(F)c3)O[C@@H]1CO2 | i
COc1ccccc1CNC(=O)C[C@H]1C[C@@H]2c3cc(N(C)C)ccc3O[C@@H]2[C@H](CO)O1 | i
COc1ccc(S(=O)(=O)Nc2ccc3c(c2)C(=O)N([C@H](C)CO)C[C@H](C)[C@H](CN(C)S(=O)(=O)c2ccc(F)cc2)O3)cc1 | i
O=C(c1ccccn1)N1CC(=O)N2[C@H](C1)[C@H](c1ccc(C#CC3CCCC3)cc1)[C@@H]2CO | i
COc1ccc(-c2ccc3c(c2)[C@@H]2[C@@H](CCN2C(=O)Cc2cccnc2)[C@H](CO)N3C)cc1 | i
CC(C)NC(=O)N(C)C[C@@H]1OCCCC[C@@H](C)Oc2ccc(NC(=O)NC3CCCCC3)cc2C(=O)N([C@@H](C)CO)C[C@@H]1C | i
C[C@@H]1CN([C@H](C)CO)C(=O)c2cc(Br)cnc2O[C@H]1CN(C)C(=O)NC1CCCC1 | i
C[C@@H]1CCCCO[C@@H](CN(C)Cc2ccncc2)[C@@H](C)CN([C@@H](C)CO)C(=O)c2cc(NS(=O)(=O)c3ccc(F)cc3)ccc2O1 | i
COc1ccc(S(=O)(=O)N(C)C[C@@H]2Oc3ccc(NC(=O)Cc4ccccc4)cc3C(=O)N([C@@H](C)CO)C[C@H]2C)cc1 | i

Already shown: 7 of the compounds above.
SMILES | FGF22 binding
CCC(=O)NC[C@H]1[C@H](c2ccc(-c3ccccc3)cc2)[C@H](CO)N1C(=O)C1CC1 | i
COc1ccccc1NC(=O)Nc1ccc2c(c1)C(=O)N(C)C[C@@H](OC)[C@H](C)CN(C)[C@H](C)CO2 | i
C[C@@H]1CN([C@H](C)CO)C(=O)Cc2cc(N(C)C)ccc2O[C@@H]1CN(C)C(=O)Nc1ccccc1 | i
Cc1ccc(S(=O)(=O)N(C)C[C@@H]2Oc3ccc(NS(=O)(=O)c4ccc(Cl)cc4)cc3C(=O)N([C@@H](C)CO)C[C@@H]2C)cc1 | i
Cc1cc(C(=O)Nc2cccc3c2O[C@H](CN(C)Cc2ccc4c(c2)OCO4)[C@@H](C)CN([C@H](C)CO)C3=O)n(C)n1 | i
O=C(Cc1ccncc1)NCC[C@H]1CC[C@@H](NC(=O)C2CCCC2)[C@H](CO)O1 | i
COCC(=O)Nc1ccc2c(c1)C(=O)N(C)[C@@H]1CC[C@@H](CC(=O)NCc3cccc(F)c3)O[C@@H]1CO2 | i

Other entries follow.
SMILES | FGF22 binding
Cc1ccc(-c2ccc([C@H]3[C@H](CO)N4CCCCN(Cc5cncnc5)C[C@@H]34)cc2)cc1 | i
OC(c1ccccc1)(c1ccccc1)C1CCN(CCCOc2ccccn2)CC1 | i
Cc1ccccc1-c1ccc([C@H]2[C@@H](CO)N3C(=O)CN(C(=O)c4ccncc4)C[C@H]23)cc1 | i
COCC(=O)N[C@@H]1C=C[C@H](CC(=O)NCc2ccccc2OC)O[C@@H]1CO | i
CC(C)NC(=O)Nc1cccc2c1O[C@@H](CN(C)Cc1ccncc1)[C@@H](C)CN([C@@H](C)CO)C2=O | i
C[C@H]1CN([C@@H](C)CO)C(=O)c2cccc(NS(=O)(=O)c3ccc(Cl)cc3)c2O[C@H]1CN(C)C | i
CC(C)NC(=O)N(C)C[C@H]1OCCCC[C@@H](C)Oc2ccc(NC(=O)CCC(F)(F)F)cc2C(=O)N([C@H](C)CO)C[C@H]1C | i
Cc1noc(C)c1S(=O)(=O)Nc1ccc2c(c1)C(=O)N([C@H](C)CO)C[C@@H](C)[C@H](CN(C)S(=O)(=O)c1ccccc1)O2 | i
C[C@@H]1CN([C@H](C)CO)C(=O)Cc2cc(N(C)C)ccc2O[C@@H]1CN(C)Cc1ccccc1 | i
C[C@@H]1CCCCO[C@H](CN(C)Cc2ccc3c(c2)OCO3)[C@@H](C)CN([C@H](C)CO)C(=O)c2cc(NC(=O)C3CCCCC3)ccc2O1 | i
COCc1cn(CC[C@H]2CC[C@H](NC(=O)Cc3cccnc3)[C@H](CO)O2)nn1 | i
CN(C)C(=O)c1ccc(-c2ccc3c(c2)[C@@H]2[C@@H](CCN2C(=O)c2ccccn2)[C@@H](CO)N3C)cc1 | i
O=C(NCCc1ccncc1)[C@H]1[C@H](CO)[C@H]2Cn3c(ccc(-c4cccc(F)c4)c3=O)[C@@H]1N2 | i
Cc1ccccc1S(=O)(=O)N1[C@H](C#N)[C@H](c2ccc(C#CC3CCCCC3)cc2)[C@@H]1CO | i
COCCNC(=O)C[C@H]1CC[C@H]2[C@@H](COC[C@H](O)CN2C(=O)c2cc(Cl)cc(Cl)c2)O1 | i
COCC(=O)N(C)C[C@H]1Oc2ncc(C#C[C@@H](C)O)cc2C(=O)N([C@H](C)CO)C[C@@H]1C | i
O=C(C[C@H]1CC[C@H](NC(=O)c2ccc(F)cc2)[C@@H](CO)O1)NCCc1ccncc1 | i
O=C(C[C@H]1C=C[C@H](NC(=O)Nc2ccccc2)[C@H](CO)O1)NCc1cccc(F)c1 | i
CC(C)NC(=O)N1C[C@H]2[C@@H](c3ccccc31)[C@@H](CO)N2C(=O)C1CCCC1 | i
COc1ccc(C(=O)NCC2CCN(C(=O)C(=O)c3cccs3)CC2)cc1 | i
O=C(Nc1ccc(F)cc1)N1CCCCN2[C@H](C1)[C@@H](c1ccc(-c3cccc(F)c3)cc1)[C@@H]2CO | i
CCOC(=O)CCCCCC(=O)Nc1ccc2c(c1)C(=O)N([C@H](C)CO)C[C@@H](C)[C@@H](CN(C)S(=O)(=O)c1ccc(C)cc1)OCCCC[C@H](C)O2 | i
COc1ccc(CN(C)C[C@H]2OCCCC[C@@H](C)Oc3ccc(NS(=O)(=O)c4ccc(Cl)cc4)cc3C(=O)N([C@@H](C)CO)C[C@H]2C)cc1 | i
C[C@@H]1CN([C@H](C)CO)C(=O)c2cccc(NC(=O)C3CC3)c2O[C@@H]1CN(C)S(=O)(=O)c1ccccc1 | i
COc1ccc(S(=O)(=O)N(C)C[C@H]2Oc3ccc(NC(=O)C4CCCCC4)cc3CC(=O)N([C@@H](C)CO)C[C@@H]2C)cc1 | i
C/C=C/c1ccc([C@@H]2[C@H](CO)N(S(=O)(=O)Cc3ccccc3)C23CN(C(=O)C2CCOCC2)C3)cc1 | i
Cc1cc(C(=O)Nc2cccc3c2O[C@@H](CN(C)C(=O)Nc2c(C)noc2C)[C@@H](C)CN([C@H](C)CO)C3=O)n(C)n1 | i
C[C@H]1CN([C@@H](C)CO)C(=O)c2cccc(NS(=O)(=O)c3cccs3)c2O[C@@H]1CN(C)Cc1ccc(C(=O)Nc2ccccc2N)cc1 | i
COCCNC(=O)C[C@H]1C[C@H]2c3cc(NC(=O)c4ccc5c(c4)OCO5)ccc3O[C@H]2[C@H](CO)O1 | i
CNC[C@@H]1OCCCC[C@H](C)Oc2ccc(NC(=O)Nc3ccc(OC)cc3)cc2C(=O)N([C@H](C)CO)C[C@@H]1C | i
CN1[C@@H]2Cn3c(ccc(-c4cccc(F)c4)c3=O)[C@H]1[C@@H](C(=O)Nc1nccs1)[C@@H]2CO | i
COc1ccc(NC(=O)Nc2ccc3c(c2)CC(=O)N([C@@H](C)CO)C[C@H](C)[C@@H](CN(C)C(=O)Nc2ccc4c(c2)OCO4)O3)cc1 | i
C[C@@H]1CN([C@@H](C)CO)C(=O)c2cc(NC(=O)CCC(F)(F)F)ccc2O[C@@H]1CN(C)Cc1ccccc1 | i
C[C@H]1CN([C@@H](C)CO)C(=O)Cc2cc(NS(=O)(=O)c3ccc(F)cc3)ccc2O[C@@H]1CN(C)S(=O)(=O)c1ccc(Cl)cc1 | i
COc1ccc(S(=O)(=O)N(C)C[C@H]2OCCCC[C@H](C)Oc3ccc(NC(=O)c4ccncc4)cc3C(=O)N([C@H](C)CO)C[C@H]2C)cc1 | i
C[C@H]1CN([C@@H](C)CO)S(=O)(=O)c2ccc(-c3cccnc3)cc2O[C@H]1CN(C)C(=O)c1ccc2c(c1)OCO2 | i
O=C(N[C@@H]1CC[C@H](CCn2cc(C3(O)CCCC3)nn2)O[C@@H]1CO)C1CCCCC1 | i
CCc1sc(N2[C@@H](C#N)[C@@H](c3ccccc3-c3ccccc3)[C@@H]2CO)nc1C | i
C[C@@H]1CN([C@@H](C)CO)C(=O)Cc2cc(NS(=O)(=O)c3cn(C)cn3)ccc2O[C@H]1CN(C)Cc1ccc(C(=O)O)cc1 | i
CN(C)CCCNC(=O)C[C@@H]1CC[C@@H]2[C@H](COc3ccc(NC(=O)C4CCC4)cc3C(=O)N2C)O1 | i
C[C@H](CO)N1C[C@H](C)[C@H](CN(C)S(=O)(=O)c2cn(C)cn2)Oc2ccc(NC(=O)c3ccncc3)cc2CC1=O | i
CCCN1[C@@H]2c3ccc(C4=CCCCC4)c(=O)n3C[C@H]1[C@H](CO)[C@H]2C(=O)N1CCOCC1 | i
C[C@@H]1CN([C@@H](C)CO)S(=O)(=O)c2ccc(C3=CCCC3)cc2O[C@@H]1CN(C)Cc1cccnc1 | i
C[C@H](CO)N1C[C@H](C)[C@@H](CN(C)Cc2ccc(F)cc2)Oc2cc(Br)ccc2S1(=O)=O | i
O=C(Nc1ccc(F)cc1)N[C@@H]1CC[C@@H](CCn2cc(-c3ccccc3F)nn2)O[C@@H]1CO | i
C[C@@H]1CCCCO[C@H](CN(C)CC2CCCCC2)[C@H](C)CN([C@@H](C)CO)C(=O)c2cc(NC(=O)Nc3ccccc3)ccc2O1 | i
COc1ccc2c3c(n(C)c2c1)[C@@H](CO)N(C(=O)Nc1ccc(F)cc1)CC31CN(C(=O)c2cccnc2)C1 | i
C[C@@H]1CN([C@@H](C)CO)S(=O)(=O)c2ccc(-c3ccccc3F)cc2O[C@@H]1CN(C)Cc1cncnc1 | i
C[C@H]1CN([C@@H](C)CO)C(=O)c2cc(C#CC3CCCC3)cnc2O[C@@H]1CN(C)C(=O)Nc1ccccc1 | i
C[C@@H]1CN([C@@H](C)CO)C(=O)Cc2cc(NS(=O)(=O)c3ccc(F)cc3)ccc2O[C@H]1CN(C)S(C)(=O)=O | i
COc1ccc(S(=O)(=O)Nc2cccc3c2O[C@H](CN(C)S(=O)(=O)c2ccccc2)[C@H](C)CN([C@H](C)CO)C3=O)cc1 | i
COc1ccc2c3c([nH]c2c1)[C@@H](CO)N(C(C)=O)CC31CCN(C(=O)Nc2ccccc2F)CC1 | i
C[C@@H]1CN([C@H](C)CO)C(=O)c2cc(NC(=O)NC3CCCCC3)ccc2O[C@@H]1CN(C)Cc1ccccc1 | i

These rows are one share of the data; rates above refer to the full screens.
